Mtb hypoxia rep: inhibitors of hypoxia-regulated fluorescent reporter in Mycobacterium tuberculosis; M. tuberculosis hypoxia-regulated fluorescent reporter, fluorescence; fluorescence inhibition, % (no concentration beside the values); 300,000 compounds, 0.1% hits; AID 1159583;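 active = 35 to 45% if threefold the growth effect, above 45% if 1.5-fold the growth effect; inactive = the rest, general growth blockers included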;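 also: wells of about 50 µL received 100 nL stock; 0% = vehicle wells and 100% = reference inhibitor wells; whole bacteria with a GFP reporter of the hypoxia response; strong numbers were not always called active; many hits fall short of the cut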
RN4220 kill: S. aureus RN4220 growth inhibition; OD600, 16 h; inhibition, % (test concentration not listed); 330,000 compounds, 0.33% hits; AID 1259311;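 active = z-score of -3 or lower and OD600 up to 0.18 on both plates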;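 also: plate controls were untreated cells for no effect and reference antibiotic for full effect; stock transfer was 100 nL into about 80 µL; one replicate is shown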
PrP 5UTR inh: inhibition of PrP 5' UTR reporter expression; cell-based PrP 5' UTR mRNA reporter, plate reader; inhibition, % (test concentration not listed); 340,000 compounds, 0.35% hits; AID 488862;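 active = every replicate at 50% or more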;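 also: 0 = median of the neutral control wells; tested in H4 reporter cells; numbers are from one replicate; inactives centre near -14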
Sa ugtP lethal: compounds lethal to S. aureus RN4220 ugtP deletion mutant; OD600 growth, 16 h; some inactives read as strong as hits; growth inhibition, % (test concentration not listed); 330,000 compounds, 0.54% hits; AID 1259309;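 active = z-score under -3 and OD600 up to 0.15 on both plates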;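 also: plate controls were untreated wells for no effect and antibiotic for full effect; wells of about 80 µL received 100 nL stock; the first replicate is given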
Autofluor counter: flagged as autofluorescent in microsphere protease counterscreen | compound autofluorescence counterscreen, microsphere flow cytometry; active compounds read high | fluorescence intensity (no concentration beside the values) | 360,000 compounds, 3.1% hits | AID 624483;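 active = at least 3 SD above the mean of all compounds, about 16000 in these data; inconclusive = too few beads counted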;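 also: 100 nL of 1 mM stock went into each well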
BJeLR lethal: kills HRASV12-expressing BJeLR cells | BJeLR (HRASV12) viability, CellTiter-Glo ATP luminescence, 48 h; reference of the scale not given here | inhibition, % (concentration not given with the values) | 300,000 compounds, 0.17% hits | AID 1554;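 active = replicate mean above 50%; inconclusive = above 50% but judged a plate artefact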;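 also: 50 nL library stock added to about 25 µL; numbers are from one replicate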
Mtb hypoxia rep growth: second read-out of Mtb hypoxia rep, no call of its own (marks repeat the call); growth inhibition, %; measured here: M. tuberculosis growth (absorbance);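 0% = vehicle and 100% = reference antibiotic; read after six days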
Starred values were filed as active, the others as inactive; ? = inconclusive; / = no result given.

Every second line gives: Mtb hypoxia rep	Sa ugtP lethal	PrP 5UTR inh	Autofluor counter	BJeLR lethal	Mtb hypoxia rep growth	RN4220 kill
CCOc1cc(CNc2ccc(Br)cc2)cc(Br)c1OCC(=O)NC(C)(C)C
    8	-22	-6	8160	0	0	-6.2
CN(Cc1nc2ccccc2[nH]1)C(=O)C1CCC(=O)N(CCc2cccc(F)c2)C1 (configuration not stated)
    4	4	-12	6337	-2	3	-2.0
CS(=O)(=O)N(CC(=O)N1CCCC1)c1cccc(Cl)c1Cl
    5	4	-9	10734	-8	6	6.6
COc1ccc(-n2nc(C(=O)NCC(=O)N3CCN(Cc4ccccc4)CC3)c3ccccc3c2=O)c(OC)c1
    4	6	-20	4257	-7	1	1.1
O=C(/C=C/c1ccco1)c1ccccc1O
    8	10	-59	4125	-10	-1	12
CC(=O)NCCC(=O)N(Cc1ccccc1)c1nc2c(C)cccc2s1
    14	11	-18	5562	-4	-7	-1.5
O=C1CN(C(=O)COc2ccc(F)cc2Br)c2ccccc2N1
    7	3	-30	3904	-5	8	4.3
Cc1c(NC(=O)c2cccc(F)c2)c(=O)n(-c2ccccc2)n1C
    0	-2	-11	11116	-4	9	0.7
COc1cc(NC(=S)NCCN2CCOCC2)cc(OC)c1OC
    -8	9	-7	2622	-9	2	5.4
COc1ccc(N2C(=O)C3CCCN3C2c2ccccc2)cc1 (configuration not stated)
    /	2	5	6391	-6	/	2.6
O=C(NC(=S)N1CCCC1)c1ccccc1Cl
    4	6	6	6004	7	-6	4.5
Cn1nc(OC(=O)Nc2cccc(Cl)c2)cc1C(F)(F)F
    /	-33	-7	3517	-10	/	-3.4
S=C(NCCc1ccccc1)N/N=C/c1cccc(Cl)c1Cl
    /	/	-10	2153	-7	/	/
O=C(NN=Cc1ccccc1F)c1ccc(COc2ccccc2Cl)o1
    1	22	/	/	/	2	4.1
COCCn1cc(C(=O)N2CCC3(CC2)OCCO3)c2c3ccccc3n(C)c2c1=O
    5	2	-19	9721	4	5	2.8

The final 3 entries of the part before lead into the next.
Every second line gives: Mtb hypoxia rep	Sa ugtP lethal	PrP 5UTR inh	Autofluor counter	BJeLR lethal	Mtb hypoxia rep growth	RN4220 kill
S=C(NCCc1ccccc1)N/N=C/c1cccc(Cl)c1Cl
    /	/	-10	2153	-7	/	/
O=C(NN=Cc1ccccc1F)c1ccc(COc2ccccc2Cl)o1
    1	22	/	/	/	2	4.1
COCCn1cc(C(=O)N2CCC3(CC2)OCCO3)c2c3ccccc3n(C)c2c1=O
    5	2	-19	9721	4	5	2.8
Cc1occc1-c1nnc(SCC(=O)Nc2ccccn2)o1
    2	10	-32	3293	21	5	7.0
c1ccc(N2CCN(c3ccccc3)C2c2ccncc2)cc1
    18	8	-27	7848	10	8	3.6
O=P(Cc1cccc2ccccc12)(c1ccccc1)c1ccccc1
    6	11	-24	2831	/	2	6.5
COc1ccc(-n2c(SCC(=O)N/N=C/c3ccccc3OCC(=O)O)nc3ccccc3c2=O)cc1
    /	/	6	4728	-12	/	/
COc1ccc(C(=O)NCC(=O)OCc2ccc(Cl)cc2Cl)cc1OC
    -4	0	-19	3670	/	1	3.8
O=c1c2cc(-c3ccccc3)sc2ncn1N=Cc1ccco1
    16	-17	/	/	/	5	-8.4
CCn1c(N2CCN(C(=S)Nc3ccc(OC)cc3)CC2)nc2ccccc21
    4	10	-7	3333	5	9	1.7
CCCC[C@H]1COCCS(=O)(=O)N1Cc1cccc(F)c1
    /	/	2	3905	-6	/	/
CCC(Sc1nc(-c2cccc(OC)c2)c(C#N)c(=O)[nH]1)C(=O)Nc1nnc(C(C)C)s1 (configuration not stated)
    6	2	-5	4464	7	9	14
COc1ccc(S(=O)(=O)N2CCN(CCCOc3ccc(F)cc3)CC2)cc1OC
    6	0	-21	3007	2	-6	0.8
CN(C(=O)COC(=O)CCC(=O)c1ccc(Cl)cc1)c1c(N)n(Cc2ccccc2)c(=O)[nH]c1=O
    -6	6	-16	/	-1	-9	-1.0
CC(=O)Nc1ccc(S(=O)(=O)N2CCC(N3CCCCCC3)CC2)cc1
    -7	-3	-18	4425	0	-7	1.3
Cc1ccc(C(=O)Nc2ccc3c(c2)C(=O)NC3=O)cc1
    14	10	-30	4457	4	8	6.5
COc1ccc(C(O)(CC(C)C)C(CN2CCOCC2)c2ccccc2)cc1 (configuration not stated)
    -4	1	-14	2929	0	-4	1.5
NS(=O)(=O)c1cc(C(=O)NC2CCSc3ccccc32)ccc1Cl (configuration not stated)
    /	/	-10	5814	-4	/	/

Next compounds
Every second line gives: Mtb hypoxia rep	Sa ugtP lethal	PrP 5UTR inh	Autofluor counter	BJeLR lethal	Mtb hypoxia rep growth	RN4220 kill
O=C(Nc1ccc2nc(-c3cccnc3)[nH]c2c1)c1ccco1
    -2	4	-42	6106	5	3	-4.5
CC12C(=NO)C3C4CC5C3C(=NO)C1C5C42 (configuration not stated)
    6	8	/	/	/	10	4.2
C#CC(CC)(CC)NC(=O)/C=C/C(=O)O
    2	12	-29	?	-4	-4	1.9
[O-]c1c[n+](-c2ccccc2)no1
    -9	5	-34	5371	11	0	2.2
C/C(=N\NC(=O)Cn1ccc(C(F)(F)F)n1)c1ccco1
    /	/	-19	2152	8	/	/
c1coc(CNCc2cccs2)c1
    -2	2	-16	9438	-2	4	1.8
Cc1ccc(CC(=O)Nc2ccc(OC(F)F)c(Cl)c2)cc1C
    0	-8	-8	2071	6	6	-16
C=CCNc1nnc(SCC(=O)Nc2ccccc2OC)c2ccccc12
    4	13	-13	6368	-18	-2	1.7
Cc1cccc(Nc2nc(NCC3CCCO3)nc(N)c2[N+](=O)[O-])c1 (configuration not stated)
    16	-15	9	2741	24	6	6.9
CN1CCN(N=Cc2nc(-c3ccccc3)n3ccccc23)CC1
    -2	7	/	/	/	0	2.6
O=c1cc(CN2CCN(Cc3ccccc3)CC2)c2cc3c(cc2o1)CCC3
    -4	-5	-23	5941	1	7	5.2
N#C/C(=C/c1ccco1)c1nc2ccccc2s1
    6	-1	-65	9605	-7	12	0.9
COc1cccc(-c2nc3c(c(SCC(=O)N4CCOCC4)n2)Cc2c(CO)cnc(C)c2O3)c1
    -5	3	-3	4597	-12	-2	3.7
COc1cc(C=NNC(=O)c2cccnc2)ccc1OC(=O)c1ccc2c(c1)OCO2
    2	-5	/	/	/	1	3.8
COc1ccccc1C(CNc1ncccc1[N+](=O)[O-])N(C)C (configuration not stated)
    8	-3	-4	3543	1	-4	2.4

(next part)
Every second line gives: Mtb hypoxia rep	Sa ugtP lethal	PrP 5UTR inh	Autofluor counter	BJeLR lethal	Mtb hypoxia rep growth	RN4220 kill
CCCN(C(=O)Cn1c(C(F)(F)F)nc2ccccc21)C1CCS(=O)(=O)C1 (configuration not stated)
    2	-5	-16	5275	2	9	-1.3
N#Cc1ccc(CSc2ccc(S(=O)(=O)N3CCCC3)cn2)cc1
    -2	2	-2	6626	/	-2	-0.7
Cc1cc(C)nc(SCC(=O)NN=Cc2cccn2-c2cccc(C(F)(F)F)c2)n1
    10	1	/	/	/	8	2.5
O=C(COc1ccc2ccccc2c1)N1CCN(Cc2c[nH]c3ccccc23)CC1
    15	-20	-7	4740	3	15	-6.3
N/C(=N\OC(=O)CC1CCCCC1)c1ccc(Br)cc1
    12	16	-11	5110	3	14	4.4
COc1ccc(NC(=O)CSc2nnc3ccc(-c4cccnc4)nn23)cc1OC
    -5	2	-7	/	5	7	2.7
Cn1cc(S(=O)(=O)Nc2ccc(F)c(Cl)c2)c(=O)n(C)c1=O
    9	-1	-17	6570	-14	6	-12
CC(C)CC(=O)Nc1ccc(N2CCN(S(C)(=O)=O)CC2)cc1
    6	2	-4	9738	-3	-2	2.7
CCOC(=O)C1(Cc2ccccc2C)CCCN(Cc2ccc(NC(C)=O)cc2)C1 (configuration not stated)
    2	-1	-6	5448	3	3	1.7
Cc1ccc(S(=O)(=O)N(C)c2ccccc2C(=O)Nc2ccc3c(c2)OCCO3)cc1
    -2	3	-15	4964	-3	11	7.3
Cc1ccc(C(=O)N/C(=C\c2cn(C)c3ccccc23)C(=O)NCCCN2CCOCC2)cc1
    -4	11	-8	4238	-6	-5	4.1
Cc1c(C(=O)O)cccc1-c1ccc(C=NNc2ccc(Br)cc2)o1
    7	84	/	/	/	1	84
O=[N+]([O-])c1cc(C=NO)ccc1Sc1ccccc1
    13	-8	/	/	/	14	-1.1
O=C(NC(=S)Nc1cccc(Cl)c1N1CCCC1)c1ccc(-c2cccc([N+](=O)[O-])c2)o1
    -11	-3	/	8001	5	-4	6.1
COC(=O)c1cc(N=Nc2sc(N)nc2C)cc(C(=O)OC)c1
    12	12	-9	4571	-2	-3	6.8

Going on with the list.
Every second line gives: Mtb hypoxia rep	Sa ugtP lethal	PrP 5UTR inh	Autofluor counter	BJeLR lethal	Mtb hypoxia rep growth	RN4220 kill
O=C(CSc1nc2ccsc2c(=O)n1CC1CCC(C(=O)O)CC1)c1ccc(F)cc1 (configuration not stated)
    8	8	41	4326	-3	3	6.7
CCOC(=O)c1ccc(Cl)c(S(=O)(=O)N2CCCC2)c1
    0	14	-22	3152	7	9	8.6
CC1CCN(S(=O)(=O)c2cccc(C(=O)NCC3CCCO3)c2)CC1 (configuration not stated)
    -2	-1	1	4136	-1	2	3.9
CCCc1ccc(S(=O)(=O)N2CCN(C(C)C(=O)NCc3ccccc3)CC2)cc1 (configuration not stated)
    1	-2	-46	6316	/	0	0.2
Cc1cccc(CS(=O)(=O)Cc2ccc(C(=O)O)o2)c1
    /	-1	-13	4898	-14	/	-1.5
CS(=O)(=O)CCC(C(=O)n1nnc2ccccc21)N1C(=O)c2ccccc2C1=O (configuration not stated)
    /	4	-9	4153	-9	/	3.6
CC(Oc1ccccc1)C(=O)NC1CCN(Cc2ccccc2)CC1 (configuration not stated)
    -9	-12	-16	12896	-5	6	-1.9
CN1CC(=O)N(CC(=O)Nc2ccc(SC(F)F)cc2)C1=O
    0	3	-7	4242	-6	15	1.1
Cc1ccc2c(C(=O)CN3CCN(c4ccccc4)CC3)c(C)[nH]c2c1
    /	-18	-13	3585	5	/	6.1
COc1ccc(C(=O)Nc2cc3c(cc2C(=O)O)OCCCO3)c(OC)c1
    -4	4	-12	3795	0	2	6.0
C=CCNC(=S)N/N=C/c1ccc(-c2cc(Cl)ccc2Cl)o1
    /	/	-11	3214	0	/	/
NC(=O)c1nn(Cc2ccccc2)c(=O)c2ccccc12
    8	1	-22	3989	-7	2	0.5
COc1ccccc1N(C(=O)c1snc(C(N)=O)c1N)C(C(=O)NC1CCCC1)c1ccco1 (configuration not stated)
    -1	3	-11	23621*	7	8	6.3
CCn1c(SCC(=O)N2CCCCC2C)nc2c1c(=O)n(C)c(=O)n2C (configuration not stated)
    2	14	-15	3750	1	9	-0.4
Cc1nc(CNC(=O)CC2C(=O)NCCN2Cc2ccc(F)cc2)cs1 (configuration not stated)
    5	3	-3	?	-1	10	0.4

Following part:
Every second line gives: Mtb hypoxia rep	Sa ugtP lethal	PrP 5UTR inh	Autofluor counter	BJeLR lethal	Mtb hypoxia rep growth	RN4220 kill
COc1ccccc1NS(=O)(=O)c1cccc(NC(=O)CCNC(=O)c2ccccc2OC)c1
    7	9	-5	6320	/	-9	4.2
CN(C)C=Nc1ncc(-c2ncc(C(F)(F)F)cc2Cl)cn1
    3	9	/	/	/	-4	3.6
COC(=O)c1ccccc1S(=O)c1snnc1C (configuration not stated)
    15	-2	-10	?	-3	-5	0.5
CCN(CC)c1nc(Nc2ccccc2)nc(Oc2ccc(=O)n(C)n2)n1
    5	-12	-8	7838	-11	7	1.1
COc1ccc(CCNCC2C(Oc3ccc(Cl)cc3)C(=O)N2c2ccccc2C)cc1OC (configuration not stated)
    2	-1	-13	2581	-4	3	-1.2
CCc1c(C(=O)N/N=C/c2ccc(C)o2)csc1C
    /	/	-33	10364	6	/	/
Cc1noc(C)c1S(=O)(=O)Nc1ccc(C(=O)N2CCN(c3ccc(Cl)cc3)CC2)cc1
    1	2	-30	4134	10	11	-0.5
Cc1ccc(C)c(NC(=O)c2ccccc2Sc2ccc([N+](=O)[O-])cc2Cl)c1
    -1	-2	-11	1952	6	4	-5.2
O=C(CCS(=O)(=O)c1ccc(Br)cc1)Nc1ccc2c(c1)OCO2
    3	16	-37	7647	-3	4	0.7
C=C1Cn2c(nnc2-c2ccc(Cl)cc2)S1
    /	5	3	6057	-7	/	2.0
CCOC(=O)CSc1nc2ccccc2c(=O)n1CC1COc2ccccc2O1 (configuration not stated)
    13	-5	-16	22016*	16	11	2.2

Screening data deposited in PubChem by several laboratories.
